# Bioassay records: PubChem BioAssay, Center for Chemical Genomics, University of Michigan
# TAR Tat displ – HIV-1 TAR-Tat binding disruption; HIV-1 TAR RNA, Tat peptide displacement FRET; active compounds read high; z-score (no concentration beside the values); 0.6% of 100,000 active; AID 1259389;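 further: score is relative to mean and SD of negative controls; some compounds called inactive have numbers as strong as hits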
# CDC25B-CDK2 inh – human CDC25B-CDK2/CyclinA binding inhibition; z-score (test concentration not listed); HTRF CDC25B-CDK2/CyclinA binding, anti-His/anti-Flag; active compounds read high; 0.72% of 94,000 active; P30305+P24941;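 further: score is relative to mean and SD of negative controls; strong numbers were not always called active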
# Starred values were filed as active, the others as inactive; / = not tested or not shown.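 How the source made its calls: active means z-score from 3 up in half or more of its runs; inactive means the rest.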
Compound | CDC25B-CDK2 inh | TAR Tat displ
Cc1cc(C(=O)N/N=C/C(C)(C)C)no1 | -2.7 | /
O=C(Nc1nc2n(n1)C(c1ccc(Cl)cc1)C=C(c1ccccc1)N2)c1cccs1 (stereo not drawn) | -0.28 | -0.45
CCOC(=O)c1c(C)c(C(=O)NCc2ccco2)c(C)n1C | -0.91 | /
O=C(Nc1ccc(F)cc1F)c1ccc([N+](=O)[O-])o1 | 0.75 | -1.1
CSc1ccc(-c2noc(C3CCCN(S(=O)(=O)c4ccc(C)cc4)C3)n2)cc1 (stereo not drawn) | / | 2
CN(C(=O)CCn1c(=S)oc2ccccc21)c1ccc(F)cc1 | -0.51 | /
COC(=O)c1ccc(C(=O)N(CCN(C)C)c2nc3c(F)cc(F)cc3s2)cc1 | / | 1.2
O=C(CN1N=NC2C(=O)N(c3ccc(F)c(Cl)c3)C(=O)C21)Nc1cc(F)ccc1F (stereo not drawn) | / | -0.14
Cc1ccc(S(=O)(=O)N2CCCCC2)cc1-c1nnc2c3ccccc3c(C)nn12 | -0.44 | 0.31
COc1ccc(C)cc1NC1=NS(=O)(=O)C(c2ccc(F)cc2)=C1C | / | 0.04
Cc1oc(-c2ccc(C(C)C)cc2)nc1Cn1c(=O)cc(C(F)(F)F)c2c(C)nn(C)c21 | / | 0.82
CC1CN(C(=O)Cn2cc(SCC(N)=O)c3ccccc32)CC(C)O1 (stereo not drawn) | / | -0.23
COc1cccc(-c2noc(NCc3cccs3)n2)c1 | / | -1.4
Cc1ccc(CNc2c(-c3cc(C)c(C)cc3C)c(=O)c2=O)o1 | / | 1.2
Cc1c(C(=O)NC(C)C)oc2ccc3c(c12)C(O)CC1(CCCC1)O3 (stereo not drawn) | 0.15 | 1.3
c1ccc(SCc2nn[nH]n2)nc1 | -2.6 | /
COc1ccc(OC)c(NC(=O)c2sc3nc(-c4cccs4)ccc3c2N)c1 | 0.41 | -0.1
CCCCCCn1c(COC)nc2ccccc21 | -1.4 | -0.19
CC(C)(C)c1ccc(NC(=O)CSc2ccc(Cl)cc2)cc1 | -1.7 | /
O=C(Nc1cccc(C(F)(F)F)c1)N1CCOC12CCCCC2 | -1.5 | /
CCn1c(C(=O)N2CCC(C(=O)NCc3ccc4c(c3)OCO4)CC2)cc2sccc21 | -2.8 | /
CC(N)=NCCCC[C@@H](N)C(=O)O | 0.56 | /
COc1ccc(CN2N=NC3C(=O)N(c4ccc(Cl)cc4)C(=O)C32)cc1Br (stereo not drawn) | 0.57 | 1.4
Cc1ccc(C)c(Cn2cccc2CNC(=O)Nc2cc(C)ccc2C)c1 | / | -1.2
CC(=O)C(Sc1nnnn1-c1ccccc1)C(C)=O | -1.3 | /
CN(C(=O)CCc1nc(CN2CCN(C(=O)c3ccc4c(c3)OCO4)CC2)no1)C1CCCCC1 | / | -0.95
O=C(C1Cc2ccccc2CN1S(=O)(=O)c1ccc(F)cc1)N1CCOCC1 (stereo not drawn) | 0.63 | 1.8
O=C(NCC1CC1)NC(=O)c1c(Cl)cccc1Cl | -0.29 | /
CC(C)Oc1ncnc2c1sc1nc(N3CCOCC3)c3c(c12)CC(C)(C)OC3 | -1 | /
O=C(CSc1nc(=O)n(CCN2CCOCC2)c2c1CCC2)Nc1nccs1 | / | 0.08
COc1ccc(/C(O)=C2\C(=O)C(=O)N(CCCn3ccnc3)C2c2ccc(C(C)C)cc2)cc1 (stereo not drawn) | -1.4 | 0.17
CCN1c2ccccc2NC2C1C(C(C)=O)C(=O)N2c1ccc(Cl)cc1 (stereo not drawn) | -0.7 | /
Cn1c(=O)oc2cc(S(=O)(=O)N3CCCC(C(=O)NCCN4CCCC4)C3)ccc21 (stereo not drawn) | -0.22 | /
Brc1cccc(-n2ncc3c2ncn2nc(Cc4ccccc4)nc32)c1 | -0.95 | 2.4
O=c1cnnc(Nc2cccc(F)c2)[nH]1 | -1 | -0.3
COc1cc2c(c(OC)c1)C(c1cc(OC)ccc1OC)CC(=O)N2 (stereo not drawn) | -1.5 | 0.18
COCCCNC(=S)N/N=C/c1cccn1-c1ccc(C(F)(F)F)cc1 | -1.1 | /
Cc1ccc(-c2nc(CSCC(N)=O)no2)cc1 | / | 0.49
O=c1c(SCc2ccc(F)cc2Cl)nccn1-c1cccc(F)c1 | / | 0.71
COc1ccc(-c2noc(C(C)Oc3ccc(C)cc3)n2)cc1OC (stereo not drawn) | -0.94 | 3.3
Cc1cc2[nH]c(=O)[nH]c2cc1NC(=O)C(C)C | / | 0.36
Cc1c(Br)c([N+](=O)[O-])nn1CC(=O)NCc1cccs1 | 0.77 | 1.1
CC(C)NC(=O)CCC1=NS(=O)(=O)c2ccccc2N1 | -1.8 | /
O=C1C2SCCN2C(=S)N1c1cccc(C(F)(F)F)c1 (stereo not drawn) | -1.4 | /
COc1cc(NC(=O)C2CCCN2S(=O)(=O)c2cccc3cccnc23)cc(OC)c1OC (stereo not drawn) | -0.96 | /
O=C(Cn1ncc2ccc(Cl)cc21)NC1CCCCC1 | 0.53 | 1.3
CC1=CC(C)(C)N2C(=O)C(=O)c3cc(OC(=O)CCC4CCCCC4)cc1c32 | 0.56 | 0.91
CC(=O)Oc1ccc(C2C(C(=O)OCC(C)C)=C(C)NC3=C2C(=O)CC(c2cccs2)C3)cc1 (stereo not drawn) | 1.9 | 1.4
Cc1ccc2oc(=O)c3cnn(CC(=O)NCc4ccc5c(c4)OCO5)c3c2c1 | -1.1 | -0.15
CCCCC(=O)Nc1ccc(OCc2cc(=O)n3ccc(C)cc3n2)cc1 | / | -6.8

# Following part:
Compound | CDC25B-CDK2 inh | TAR Tat displ
COc1ccc(-c2ccc(CNCCSc3nnnn3C)o2)cc1Cl | -2.2 | -0.6
CNC(=O)c1nnc(-c2ccc3c(c2)OCO3)o1 | / | 0.5
COc1ccc(OC)c(-c2nc(C(N)=O)c3[nH]c(=O)n(CC4CCCO4)c3n2)c1 (stereo not drawn) | / | 0.59
Cc1cc(C)n(-c2nnc3n2N=C(c2ccccc2O)CS3)n1 | -0.86 | -1.7
O=C(CSn1nnnc1-c1ccccc1)N/N=C/c1cc(Br)ccc1OCc1ccccc1 | -3.1 | /
CCC(C)NC(=O)c1ccc(N2CCSc3ncccc32)s1 (stereo not drawn) | / | 0.49
O=C(c1cccn2c(=O)c3ccc(Cl)cc3nc12)N1CCc2ccccc2C1 | -4.7 | /
Cc1nc(-c2csc(S(=O)(=O)N(C)Cc3ccccc3)c2)no1 | / | 0.63
Nc1ncnc2c1[nH]c(=S)n2Cc1ccccc1 | -2.3 | /
c1ccc(COc2ccc(CCC3OCCO3)cc2)cc1 | 0.65 | /
CC(C)CN(CC(C)C)S(=O)(=O)c1ccc(CCN2C(=O)c3cccnc3C2=O)cc1 | / | 0.24
Cc1nn(C(C)C(=O)NC2CCC(C)CC2)c2ccccc12 (stereo not drawn) | -0.41 | 0.58
Cc1noc(/C=C/N(C)C)c1S(=O)(=O)N1CCCC(C(=O)NC2CCCCC2C)C1 (stereo not drawn) | -1.1 | -0.82
COc1ccc(C2Nc3ccccc3NC3=C2C(=O)CC(c2ccccc2)C3)cc1OC (stereo not drawn) | -3.4 | 0.49
O=C(NC1CCCCC1)C1c2ccccc2Oc2ccccc21 | -1.6 | 1.9
O=C(c1noc2c1COc1ccccc1-2)N1CCC(N2CCCCC2)CC1 | -1.1 | 0.04
Cc1ccc2c(=O)cc(C(=O)Nc3sc4c(c3C(=O)NCc3ccco3)CCC4)oc2c1C | -1.4 | -0.56
Cc1ccc(-c2nc(CNS(=O)(=O)c3ccc(C)cc3)c(C)o2)cc1 | / | 1.7
COc1cccc(-c2nn3c(-c4ccccc4Cl)nnc3s2)c1 | -1.3 | 0.73
Fc1ccc(Nc2c3c(nc4ncnn24)CCCC3)cc1 | / | 1.1

# Molecules shown so far with a furan ring, fused or not (6):
Compound | CDC25B-CDK2 inh | TAR Tat displ
CCOC(=O)c1c(C)c(C(=O)NCc2ccco2)c(C)n1C | -0.91 | /
O=C(Nc1ccc(F)cc1F)c1ccc([N+](=O)[O-])o1 | 0.75 | -1.1
Cc1ccc(CNc2c(-c3cc(C)c(C)cc3C)c(=O)c2=O)o1 | / | 1.2
Cc1c(C(=O)NC(C)C)oc2ccc3c(c12)C(O)CC1(CCCC1)O3 (stereo not drawn) | 0.15 | 1.3
COc1ccc(-c2ccc(CNCCSc3nnnn3C)o2)cc1Cl | -2.2 | -0.6
Cc1ccc2c(=O)cc(C(=O)Nc3sc4c(c3C(=O)NCc3ccco3)CCC4)oc2c1C | -1.4 | -0.56

# (listing goes on)
Compound | CDC25B-CDK2 inh | TAR Tat displ
O=C(CNC(=O)N1CCSc2ncccc21)NCC1CCCO1 (stereo not drawn) | / | -1.7
Cn1c(CCNC(=O)C2CCCCC2)nc2cc(NC(=O)c3ccco3)ccc21 | 0.89 | 2.3
Cn1ncc2c(NCCCO)ncnc21 | / | 0.42
CCOC(=O)C1C(=O)C=C(c2ccco2)CC1c1ccccc1 (stereo not drawn) | -1.8 | /
O=S(=O)(CCS(=O)(=O)c1ccc(Cl)cc1)c1ccccc1 | -2.7 | /
Cc1ccc2[nH]c(=O)c(NS(=O)(=O)c3ccccc3)c(-c3ccccc3)c2c1 | -0.14 | /
CN(C)S(=O)(=O)N1CCC(CN2CCCCC2)CC1 | / | 0.89
CC(C)Cn1cnc2c(N)nc3ccccc3c21 | / | 2.4
Cc1sc2c(c1C)CSC(C(=O)NCC(C)c1ccccc1)=C2 (stereo not drawn) | / | -3.5
c1nnc2nc3c(c(N4CCOCC4)n12)CCC3 | -2 | 0.94
CCN(CC)S(=O)(=O)c1ccc2c(c1)CC(C)N2C(C)=O (stereo not drawn) | / | 1.1
CSc1cccc(NC(=O)C(CC(C)C)N2Cc3ccccc3C2=O)c1 (stereo not drawn) | / | -0.8
Cn1cnc2c(=O)oc3ccc(S(=O)(=O)N4CCN(Cc5ccccc5)CC4)cc3c21 | / | -0.34
CSc1nnc(NC(=O)c2cc(=O)c3cc(C)c(C)cc3o2)s1 | -2.1 | 2.2
O=C(NCCN1CCCC1)c1ccc(Cn2c(SCc3ccc(F)cc3)nc3ccncc32)cc1 | -15 | -1.6
C=CCn1c(N)c(C(=O)NCc2ccccc2)sc1=S | -1.4 | 2.2
CCCOc1ccc(C2c3c(oc4ccccc4c3=O)C(=O)N2c2nc(C)c(C)s2)cc1OCC (stereo not drawn) | 0.79 | 1.1
Cn1c(-c2nnc(SCC(=O)Nc3ccc4c(c3)OCO4)o2)cc2ccccc21 | -1.7 | 1.2
CSc1ncc(C(=O)Nc2ccc3c(c2)OCO3)c(C)n1 | / | 0.25
CCOC(=O)CC1=CC(=O)Nc2cc(C)c(C)cc2N1 | -0.4 | 0.76
C=CCn1c(=O)n(CCc2ccccc2)c(=O)c2c3c(sc21)COC(C)(C)C3 | -0.45 | -0.2
CC(=O)Nc1ccc2nc(-c3ccc(-c4nc5ccc(NC(C)=O)cc5[nH]4)cc3)[nH]c2c1 | 4.4 | /
CCOC(=O)c1c(C)csc1NC(=O)Nc1c(-c2c(Cl)cccc2Cl)noc1C | -0.71 | /
COc1ccc(N2C(=O)c3cccnc3C2Nc2ccc(F)cc2Cl)cc1 (stereo not drawn) | / | -1.6
C/C1=C\CC(C)(C)/C=C/C(=O)/C(C)=C/CC1 | / | 2
Cc1cc2c(NS(=O)(=O)c3cn(C)cn3)cccc2nn1 | -2.3 | /
COc1ccc(C(C)(C)C)cc1S(=O)(=O)n1cnc(C)c1 | -0.56 | -0.05
Cc1cn2c(=O)cc(CSc3nnc(COc4ccccc4C)n3C)nc2s1 | / | 0.33
O=C(Nc1ccc2c(c1)OCCO2)c1[nH]nc2c1COc1ccccc1-2 | / | 1
Cc1ccc(C)c(CN2CCC(CNS(=O)(=O)c3cnc[nH]3)CC2)c1 | / | 1.1
C=CCSc1nnc(NC(=O)c2csnn2)s1 | -0.64 | -1
O/N=C1/CCCCC1Cn1ccnc1 (stereo not drawn) | -3 | /
Cc1cc(C)nc(Nc2ccccc2O)n1 | 0.27 | 3
CCOc1ccc(-c2nc(Cn3nc(C)c4c(C)onc4c3=O)c(C)o2)cc1 | / | 0.46
O=c1[nH]c(=S)[nH]c(O)c1/C=C/N=Nc1ccccc1 | -0.72 | /
CCN(CC)c1ccc(NS(=O)(=O)c2ccc3c(c2)CCN3C(=O)C2CC2)c(C)c1 | / | 1.4
COc1ccc(S(=O)(=O)Nc2cccc(N3CCCS3(=O)=O)c2)cc1C | / | 1.1
COc1ccc(C2Nc3c(C)cc(C)cc3-c3cc(C)nn32)cc1 (stereo not drawn) | -0.64 | 2
CC(=O)Nc1nnc(SCc2cc(=O)c3cccc(F)c3[nH]2)s1 | / | 7.6
COc1ccc(OC)c(N2C(=O)c3cccnc3C2O)c1 (stereo not drawn) | 0.18 | 0.67

# Record cards, from the list above. Screens in order: CDC25B-CDK2 inh | TAR Tat displ
# COc1ccc(S(=O)(=O)Nc2cccc(N3CCCS3(=O)=O)c2)cc1C as listed: / | 1.1
# COc1ccc(C2Nc3c(C)cc(C)cc3-c3cc(C)nn32)cc1 (stereo not drawn) as listed: -0.64 | 2

# Further records
Compound | CDC25B-CDK2 inh | TAR Tat displ
NC(=S)c1cncnc1N | -1.8 | /
CCS(=O)(=O)c1c(S(=O)(=O)CC)c2cc(C(C)(C)C)ccn2c1C(=O)c1ccc(OC)cc1 | 1.6 | 1
COc1ccc(-c2nc3ccccc3c(=O)o2)cc1OC | -1.4 | 0.28
CC1CCC(NC(=O)C2(C)Cn3c(cc4occc43)C(=O)N2CCCN2CCOCC2)CC1 (stereo not drawn) | / | 2.6
COc1ccccc1-c1nnc(CS(=O)(=O)c2ccccc2)o1 | -2.2 | -0.61
CCSc1nnc(NC(=O)c2nn(-c3ccc(OC)cc3)ccc2=O)s1 | 0.26 | -0.49
COC(=O)C1C2C=CC3(CN(C(C)C)C(=O)C13)O2 (stereo not drawn) | -0.16 | 2.8
CCOc1ccc(C2C(C(=O)OCCOC)=C(C)N=C3SCCC(=O)N32)cc1 (stereo not drawn) | -1.6 | 2.2
O=C(CSC1=Nc2ccccc2C2=NC(c3ccccc3)C(=O)N12)Nc1ccc(F)cc1 (stereo not drawn) | / | -0.05
